# Assay outcomes as filed in PubChem.
# T cruzi repl: blocks replication of Trypanosoma cruzi | T. cruzi beta-gal in NIH3T3, luminescence, 90 h | 300,000 compounds, 1.4% hits | inhibition, % (test concentration not listed) | AID 1885;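 active means mean inhibition across valid replicates above about 55%, limit read from the data; inconclusive means mean below that limit but half or more replicates reach it; inactive means mean below it, under half of replicates reach it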;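 further: signal also drops with host cell toxicity which is not excluded here; 0% = plate median of DMSO wells and 100% = zero luminescence signal; higher percent means less beta-gal luminescence so fewer parasites; stock transfer was 50 nL into about 50 µL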
# FGF22 binding: FGF22 (human) thermal shift binding; Q9HCT0; recombinant FGF22 thermal shift, SYPRO orange fluorescence; percent of sucrose octasulfate shift, DMSO zero; calls only at 9.99 µM; 340,000 compounds, 1.5% hits;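 active means melting point raised past a set limit in the mean and every replicate; inconclusive means no clear call; three in four hits are not shown here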
# Target sequence (Q9HCT0 whole entry, looked up): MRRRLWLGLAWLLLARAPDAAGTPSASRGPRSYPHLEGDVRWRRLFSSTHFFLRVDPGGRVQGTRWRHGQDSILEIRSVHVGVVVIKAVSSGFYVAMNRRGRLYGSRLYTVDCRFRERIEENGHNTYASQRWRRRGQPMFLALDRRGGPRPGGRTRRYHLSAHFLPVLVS
# Calb FLC: affects C. albicans growth with fluconazole; growth inhibition, % (test concentration not listed); AID 1979; C. albicans CaCi-2 (fluconazole-resistant clinical isolate) + fluconazole, Alamar Blue growth, 48 h; 300,000 compounds, 0.57% hits;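 active means most replicates above 75%; inconclusive means exactly half above 75%; inactive means most below 75%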;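 further: all wells also contain fluconazole at 8 µg/ml as a sub-toxic cotreatment; 0% = median of DMSO wells and 100% = median of geldanamycin control wells; wells of about 8 µL received 7.5 nL stock; the first replicate is given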
# MLL AF4-AF9 inh: blocks AF4 peptide binding to human AF9 | P42568 | AlphaScreen, biotin-AF4 peptide binding to FLAG-AF9 | inhibition, % at 10 µM | 350,000 compounds, 0.47% hits | AID 651704;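 active means every replicate reaching a set inhibition limit, whatever the replicate mean, cut at about 25% in these data; inconclusive means mean inhibition reaches that limit but some replicates miss it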;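 further: 0% = plate neutral control median and 100% = total signal loss; the record names both 10 and 1 µM as test concentration; the first replicate is given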
# Target sequence (P42568 whole entry, looked up): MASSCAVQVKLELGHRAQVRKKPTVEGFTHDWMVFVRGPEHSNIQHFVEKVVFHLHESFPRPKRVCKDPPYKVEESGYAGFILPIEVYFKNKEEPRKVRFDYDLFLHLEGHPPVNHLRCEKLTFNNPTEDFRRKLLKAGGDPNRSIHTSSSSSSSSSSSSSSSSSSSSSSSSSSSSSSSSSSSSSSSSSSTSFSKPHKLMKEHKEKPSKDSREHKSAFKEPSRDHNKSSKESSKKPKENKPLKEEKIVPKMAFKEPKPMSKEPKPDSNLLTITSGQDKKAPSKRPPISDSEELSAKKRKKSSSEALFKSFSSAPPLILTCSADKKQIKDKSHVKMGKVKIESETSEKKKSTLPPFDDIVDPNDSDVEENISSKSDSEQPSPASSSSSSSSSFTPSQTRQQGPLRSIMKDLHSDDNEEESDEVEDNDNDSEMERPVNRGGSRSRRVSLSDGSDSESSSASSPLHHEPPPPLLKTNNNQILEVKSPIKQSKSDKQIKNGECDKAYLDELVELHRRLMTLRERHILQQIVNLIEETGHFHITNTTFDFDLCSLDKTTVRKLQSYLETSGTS
# Ecoli rRNA inh: inhibits bacterial ribosomal RNA function over humanized ribosomes | 350,000 compounds, 1.6% hits | GFP signal change (wild-type ribosome), % (test concentration not listed) | E. coli WT GFP vs humanized-ribosome RFP mutants, fluorescence, 24 h; hits give low values; DMSO median 0, no signal -100;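 active means significant combined selectivity score with lowered wild-type GFP, culture density cut under 30%, mutant RFP and density less affected; inactive means any of these conditions unmet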; further: one replicate is shown; some compounds called inactive have numbers as strong as hits
# ALR inh: inhibitors of human sulfhydryl oxidase ALR; P55789; purified ALR, DTT oxidation, H2O2 HRP-luminol luminescence; inhibition, % (concentration not given with the values); 290,000 compounds, 3.8% hits; AID 485317;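 active means mean and each replicate at 75% or more; inconclusive means only one of the two met; inactive means neither met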;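 further: stock transfer was 7.5 nL into about 7.5 µL; 0% = neutral wells and 100% = wells with inactivated enzyme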
# Target sequence (P55789 whole entry, looked up): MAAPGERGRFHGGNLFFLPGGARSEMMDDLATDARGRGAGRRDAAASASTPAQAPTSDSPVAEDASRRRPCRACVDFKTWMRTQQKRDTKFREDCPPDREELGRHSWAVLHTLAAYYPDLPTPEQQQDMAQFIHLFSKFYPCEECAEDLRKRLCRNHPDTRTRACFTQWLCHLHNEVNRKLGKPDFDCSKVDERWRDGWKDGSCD
# RanGTP-Imp inh: disruptors of Ran-importin-beta complex formation – biochemical, FRET, CFP-Ran, YFP-importin-beta, homogeneous, primary screen; cell-free CFP-Ran/YFP-importin-beta FRET ratio; inhibition, % (no concentration beside the values); 300,000 compounds, 1.1% hits;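 active means most replicates above 15%; inconclusive means exactly half above 15%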;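 further: 0% = DMSO wells and 100% = Ran loaded with GDP instead of GTP; wells of about 40 µL received 100 nL stock; the first replicate is given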
# Beta cell apopt: beta cell apoptosis inhibition. INS-1E cytokine-induced death, ATP luminescence, 48 h; percent of positive-control rescue, neutral wells zero. protection from apoptosis, % (concentration not given with the values). 300,000 compounds, 0.8% hits. AID 435005;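 active means all replicates at 75% or more, or half of them and the mean; inconclusive means half reach 75% but not the mean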;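 further: 0% = cytokine-treated negative control wells and 100% = positive control rescue; higher means more ATP so stronger rescue from cytokine killing; wells of about 40 µL received 100 nL stock; the first replicate is given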
# Ecoli rRNA inh OD600: further read-out of Ecoli rRNA inh, marked with its call; OD600 change, %; measured here: OD600 growth;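 optical density of the mix in the first replicate; 0 = DMSO median and -100 = no signal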
# Ecoli rRNA inh RFP: further read-out of Ecoli rRNA inh, marked with its call; RFP signal change, %; measured here: RFP humanized mutant strains;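 first replicate; 0 = DMSO median and -100 = no signal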
# An asterisk follows results filed as active; i = inactive; ? = inconclusive; · = not tested or not shown. These rows are one share of the data (hit frequency here may not be typical).
SMILES,T cruzi repl,FGF22 binding,Calb FLC,MLL AF4-AF9 inh,Ecoli rRNA inh,Ecoli rRNA inh OD600,Ecoli rRNA inh RFP,ALR inh,RanGTP-Imp inh,Beta cell apopt
C=CCOC(=O)C1=C(C)NC(SCC(=O)N(CC)CC)=C(C#N)C1c1ccco1 (stereo not drawn),14,i,7,-6.7,2,8,-4.3,7,?,13
Cc1cc(C)nc(N/N=C/c2ccc3c(c2)OCCO3)n1,-1,i,-3,-1.8,7,10,2.9,-4,-1.4,-10
COC(=O)c1cc(C(=O)OC)n(Cc2ccc(C)cc2)c1C,9,i,0,-1.6,-26,-30,-22,·,-2.7,1
COc1ccc(-c2nn3cnnc3s2)cc1OC,-25,·,-10,·,·,·,·,-12,3.1,-2
Cc1cc(C)c(NC(=O)CN2C(=O)NC3(CCc4ccccc43)C2=O)c(Cl)c1 (stereo not drawn),·,i,·,-0.4,-2,2,0.3,27,·,3
CN(CCC1CCCCO1)C(=O)c1cc(COc2ccc(F)cc2F)on1 (stereo not drawn),11,i,-5,-1.5,-16,-17,-2.5,-4,3.9,·
CC(=O)N1CCCN(C(=O)c2cc(COc3c(F)cccc3F)on2)CC1,-8,i,3,-0.7,4,-6,-3.7,-5,1.4,0
Cc1ccccc1N(C(=O)CNC(=O)c1cccs1)C(C(=O)NC1CCCC1)c1ccncc1 (stereo not drawn),-1,i,-3,0.9,4,15,-0.6,·,-2.7,-2
COC(=O)Cc1c(C)nc2nc(Cc3ccccc3)[nH]n2c1=O,-2,·,4,·,·,·,·,-1,-5.6,-1
COC(=O)c1ccc(CSc2nc3c(cnn3-c3ccc(F)cc3)c(=O)[nH]2)o1,·,i,·,-7.8,-3,1,3.0,-5,·,1
COc1ccc(/C=C/C(=O)NCCCN2CCOCC2)cc1,-8,i,-4,1.2,15,13,-2.2,1,0.4,-4
O=C(COC(=O)c1ccc(Cl)nc1)NCc1ccc2c(c1)OCO2,-13,·,-4,·,·,·,·,-3,3.6,-4
COc1cc(/C=N/NC(N)=O)ccc1OCC(=O)Nc1ccc(C)c(C)c1,-8,·,-3,·,·,·,·,-2,?,0
CN(C(=O)c1cc([N+](=O)[O-])ccc1NCc1cccnc1)c1ccccc1,26,i,4,4.0,-3,-1,1.0,-6,-2.9,1
CCC(Sc1nc(C)cc(C)n1)C(=O)NC1=NN=C(c2ccc(C)cc2)CS1 (stereo not drawn),53,i,-6,5.7,-8,-6,-5.3,64,3.3,127*

# Reprinted from the part before: 2 entries; new compounds follow.
SMILES,T cruzi repl,FGF22 binding,Calb FLC,MLL AF4-AF9 inh,Ecoli rRNA inh,Ecoli rRNA inh OD600,Ecoli rRNA inh RFP,ALR inh,RanGTP-Imp inh,Beta cell apopt
CN(C(=O)c1cc([N+](=O)[O-])ccc1NCc1cccnc1)c1ccccc1,26,i,4,4.0,-3,-1,1.0,-6,-2.9,1
CCC(Sc1nc(C)cc(C)n1)C(=O)NC1=NN=C(c2ccc(C)cc2)CS1 (stereo not drawn),53,i,-6,5.7,-8,-6,-5.3,64,3.3,127*
Cc1c(-c2ccccc2)oc2c(C(=O)OCC(=O)Nc3ccc(C(N)=O)cc3)cccc2c1=O,0,i,-20,-4.3,8,9,-1.4,-2,1.2,-5
CC(C)(C)C(=O)OCc1nc(-c2ccc(C(F)(F)F)cc2)cs1,6,i,-12,-4.1,5,10,-3.1,-3,-2.0,0
COC(=O)c1cc(S(=O)(=O)NCCc2cccc(C)c2)cn1C,-11,i,2,-4.6,-9,-11,-0.2,4,2.1,0
CCc1nnc(NC(=O)C2CCCN2C(=O)NC2CCCCC2)s1 (stereo not drawn),-4,·,11,·,·,·,·,·,-2.6,-1
Cc1ccc(COC(=O)CCN=C2NS(=O)(=O)c3ccccc32)cc1,-8,i,3,-3.1,-6,-15,0.7,-17,-7.6,2
O=S(=O)(Nc1nc2ccccc2nc1NCCN1CCOCC1)c1cccc(Cl)c1,-2,·,15,·,·,·,·,4,9.4,7
CCOc1ccc(CCNS(=O)(=O)c2ccc3c(c2)NC(=O)CC(=O)N3)cc1OCC,-10,i,?,-1.4,6,3,4.1,-6,-11,0
O=C(NNC(=O)C1CCCCC1)c1cnccn1,-11,·,-5,·,·,·,·,2,-3.0,-3
O=C(Nc1ccn(Cc2cccc3ccccc23)n1)c1cccnc1,-16,i,17,-2.7,4,-5,0.6,1,?,-3
Cc1[nH]n(-c2ccccc2)c(=O)c1N=Nc1ccc2c(c1)OCO2,-2,i,4,-13,5,7,1.5,·,7.8,12
COc1ccc(C2(CNC(=O)Cc3ccc(OC)c(OC)c3)CCOCC2)cc1,-3,·,-3,·,·,·,·,·,?,6
O=c1c2sccc2nc(SCc2cc(=O)n3ccccc3n2)n1Cc1ccccn1,9,i,6,-2.2,-20,-25,-19,-3,1.8,-5
COc1ccc(C(=O)Nc2ccc(C(=O)N3CCCCC3C)cc2)c(OC)c1OC (stereo not drawn),2,i,10,-4.9,-8,-13,1.6,0,3.4,0
CC1C(=O)C(C)C(c2cc(Cl)ccc2O)NC1c1cc(Cl)ccc1O (stereo not drawn),32,i,·,13,-57,-82,-16,10,-5.1,4
CC(C)(C)C(=O)Cn1ncc(NC2CC2)c(Br)c1=O,-19,·,18,·,·,·,·,0,-3.4,3
COc1ccc(/C=C2\COc3ccccc3C2=O)cc1OC,1,·,-3,·,·,·,·,6,4.9,-1
CN(C)c1ncc(C2=C(Cl)C(=O)C(N3CCCC3)=C(Cl)C2=O)s1,20,·,-14,·,·,·,·,·,-2.4,-13
CCC(C(=O)NCc1cccnc1)c1ccccc1 (stereo not drawn),-10,·,-7,-0.2,4,0,2.5,10,1.5,-6
Cc1onc(-c2ccccc2Cl)c1C(=O)OCn1nnc2ccccc2c1=O,-2,·,2,·,·,·,·,-2,-3.5,6
CC(C(=O)c1ccc(Br)cc1)[n+]1cccc2ccccc21 (stereo not drawn),36,i,5,3.3,24,-3,3.1,4,-24,·
COC(=O)c1c(Oc2nc(OC)cc(OC)n2)cccc1Oc1nc(OC)cc(OC)n1,7,i,34,-18,6,12,-5.0,-8,1.7,0
Cc1cc(Cl)ccc1C(=O)C1CCCN(C(=O)c2cccc(N3CCCC3=O)c2)C1 (stereo not drawn),5,i,25,-0.9,-5,-17,1.6,1,1.7,-3
CC(=O)Nc1ccc(S(=O)(=O)N2CCN(c3nnnn3-c3ccccc3)CC2)cc1,-6,i,-8,3.8,11,8,0.7,1,0.9,-4
CC(C)N(C(=O)COC(=O)CCC(=O)c1cccs1)c1ccccc1,·,i,·,1.1,-10,0,1.3,-2,·,-2
COC(=O)c1c(C)oc2ccc(OC(=O)N3CCOCC3)cc12,-4,·,-3,·,·,·,·,-9,-1.9,-5
Cc1c(NC(=O)C(C)N2C(=O)c3ccccc3C2=O)c(=O)n(-c2ccccc2)n1C (stereo not drawn),-10,·,-20,·,·,·,·,-3,4.2,-4
N#CCCn1cc(C(=O)Nc2ccc(C(=O)O)cc2)c(-c2cccs2)n1,2,i,-14,4.1,2,5,-1.1,-20,6.6,3
COc1ccc(C(=O)N/N=C\c2coc3ccc(C)cc3c2=O)cc1,0,i,0,-1.2,8,14,0.1,-1,4.8,-11
COC(=O)c1[nH]c2cc(OC)ccc2c1NC(=O)CN1CCC(C(N)=O)CC1,2,·,-9,·,·,·,·,0,-2.1,-13
CC(=O)c1sc(C(C)(C)C)cc1NC(=O)CCC(=O)O,-1,i,17,·,9,-15,-3.3,5,-0.7,-5
CCOc1ccc(NC(=O)CN(C)C(=O)c2c(C)noc2C)cc1OCC,0,·,-1,-1.9,0,11,-0.3,-5,-6.6,-3
CCn1c(NC(=O)Nc2cccc(C)c2C)cc2sccc21,5,i,1,-2.5,14,11,15,-3,9.4,-7
Cc1ccc(CN2CCN(Cc3ccon3)CC2CCO)cc1 (stereo not drawn),0,i,-25,-1.6,8,8,-0.1,-2,3.6,-2
COC(=O)C(Cc1ccc(O)cc1)NC(=O)CCC(=O)Nc1ccc(S(N)(=O)=O)cc1 (stereo not drawn),-3,·,-1,·,·,·,·,35,4.3,-2
CC(=O)N1c2ccc(S(=O)(=O)N3CCCC3C(=O)Nc3ccc(C)cc3)cc2CC1C (stereo not drawn),17,i,-9,-3.7,1,0,0.3,-6,0.2,-3
CC(=O)Nc1ccc(NC(=O)CCn2cnnn2)cc1,-12,i,6,-7.3,10,5,0.8,3,1.5,-2
O=C(O)c1cc(=O)c2c(Cl)cc(Cl)cc2[nH]1,-8,i,·,-2.5,3,5,-0.3,-30,-0.8,-4
CC(C)(C)c1ccc(-c2nnc(SC3CCOC3=O)n2Cc2ccccc2)cc1 (stereo not drawn),4,i,0,1.8,-11,2,2.9,-4,-0.4,-6
Cn1c(/C=N/c2nc3ccccc3[nH]2)nc2ccccc21,·,·,-7,·,·,·,·,1,-1.1,10
COc1ccc2[nH]cc(/C=C/c3cc[n+](C)cc3)c2c1,12,i,2,2.3,54,17,18,23,-47,8
O=C(NC1CCCCC1)C1CCN(S(=O)(=O)N2CCOCC2)CC1,-18,·,5,·,·,·,·,-1,?,-5
CC1CN(C(=O)N2CCOCC2)CCN1C(=O)N1CCOCC1 (stereo not drawn),-6,i,-7,-1.1,9,8,2.7,-5,-1.7,0
CCOC(=O)c1c(Cc2ccccc2)c[nH]c1C,8,i,-6,3.5,-25,-23,-6.1,95*,-4.4,-12
CC(C)CNC(=O)COC(=O)c1c2c(nc3ccccc13)CCC2,-16,i,2,-2.3,0,5,0.8,5,-1.3,·
CCOc1ccccc1OCCOCCN1CC(C)OC(C)C1 (stereo not drawn),-2,·,-22,·,·,·,·,-8,3.8,-3
CCOC(=O)c1cccc(Nc2nc(-c3cccnc3)nc3ccccc23)c1,32,·,-5,·,·,·,·,-6,3.2,42
CCC(OC(=O)c1ccco1)C(=O)NCc1ccc(C)cc1 (stereo not drawn),-6,·,-14,·,·,·,·,2,0.4,-11
CC1=NCCN1S(=O)(=O)c1c(C(C)C)cc(C(C)C)cc1C(C)C,16,i,-11,0.7,-3,2,0.8,-1,0.4,-28
CCOC(=O)c1c(NC(=O)CSc2nnc(C)c(=O)[nH]2)sc2c1CCC2,-18,·,-3,·,·,·,·,90*,?,0
COc1ccc(-c2cn3ccccc3n2)cc1,-4,i,-1,2.8,-18,-12,-8.0,-16,-0.9,6
CCCNC(=O)N1CCN(c2ncccn2)CC1,-2,·,?,·,·,·,·,2,0.2,-1
CCOC(=O)c1cnc(SCC(=O)Nc2cc(OC)ccc2OC)nc1N,-20,·,8,·,·,·,·,-2,-1.0,28
O=S(=O)(O)CCS,-28,i,·,-4.7,13,13,0.0,-2,-3.1,1
Cc1ccc(F)cc1NC(=O)c1ccc(OCC2CCCO2)cc1 (stereo not drawn),·,i,·,-0.9,1,5,-0.7,-3,·,0
O=C(CN1CCC(O)(c2ccc3c(c2)OCO3)CC1)OC1CCCCC1,5,·,8,·,·,·,·,2,?,·
